Source: PubChem
Yeast UUG start: alters start codon recognition fidelity in yeast; activity score, % at 18.7 µM; S. cerevisiae UUG-firefly luciferase reporter, luminescence/redox ratio; hit rate 0.13% among 350,000;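 active = replicate mean at a twofold rise or more, about +100% in these data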;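 note: firefly luciferase made from a UUG start codon reports start codon fidelity; reporter light over untreated wells divided by growth signal over untreated wells; some hits fall short of that in this replicate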
* hit, by the source's call. Only part of the results is shown (hit frequency here may not be typical).

compound	Yeast UUG start
O=C(C[C@H]1C[C@H]2c3cc(NC(=O)Nc4ccc(F)cc4)ccc3O[C@H]2[C@@H](CO)O1)NCC1CC1	-3.1
COCC(=O)NC[C@@H]1[C@H](c2ccc(C3=CCCC3)cc2)[C@H](CO)N1C(=O)C1CC1	8.9
C[C@H]1CN([C@@H](C)CO)C(=O)Cc2cc(NC(=O)Nc3ccccc3)ccc2O[C@@H]1CN(C)Cc1ccc2c(c1)OCO2	5.9
CCC(=O)N1C[C@@H](C)[C@H](OC)CN(C)C(=O)c2ccc(NC(=O)c3cnccn3)cc2OC[C@H]1C	30.9
CN1c2ccc(-c3ccc(F)cc3)cc2[C@@H]2[C@@H](CCN2C(=O)c2ccncc2)[C@H]1CO	-8.3
O=C(c1ccccn1)N1C[C@H]2[C@@H](c3ccccc31)[C@@H](CO)N2C(=O)Nc1ccccc1F	10.4
COc1ccc(CN(C)C[C@H]2Oc3c(NC(=O)NC4CCCCC4)cccc3C(=O)N([C@H](C)CO)C[C@@H]2C)cc1	-4.6
CN1CCCCN2[C@H](CO)[C@@H](c3ccc(/C=C/c4ccccc4)cc3)[C@H]2C1	5.7

Five compounds drawn at random from the list so far:
compound	Yeast UUG start
O=C(c1ccccn1)N1C[C@H]2[C@@H](c3ccccc31)[C@@H](CO)N2C(=O)Nc1ccccc1F	10.4
CN1CCCCN2[C@H](CO)[C@@H](c3ccc(/C=C/c4ccccc4)cc3)[C@H]2C1	5.7
COCC(=O)NC[C@@H]1[C@H](c2ccc(C3=CCCC3)cc2)[C@H](CO)N1C(=O)C1CC1	8.9
CN1c2ccc(-c3ccc(F)cc3)cc2[C@@H]2[C@@H](CCN2C(=O)c2ccncc2)[C@H]1CO	-8.3
CCC(=O)N1C[C@@H](C)[C@H](OC)CN(C)C(=O)c2ccc(NC(=O)c3cnccn3)cc2OC[C@H]1C	30.9

Continued.
compound	Yeast UUG start
C[C@@H]1CN([C@H](C)CO)C(=O)c2cccc(NC(=O)C3CCOCC3)c2O[C@H]1CN(C)S(=O)(=O)c1ccc(Cl)cc1	18.1
C[C@H](NC(=O)C[C@@H]1CC[C@@H]2[C@H](COc3ccc(NC(=O)C4CCOCC4)cc3C(=O)N2C)O1)c1ccccc1	23.0
C[C@H]1CN([C@@H](C)CO)C(=O)c2cc(NC(=O)Cn3cnnn3)ccc2O[C@H]1CN(C)Cc1ccncc1	-20.4
CO[C@H]1CN(C)C(=O)c2ccc(NC(=O)C3CCOCC3)cc2OC[C@H](C)N(Cc2cccnc2)C[C@H]1C	-8.6
CCCC(=O)Nc1ccc2c(c1)C(=O)N(C)C[C@H](OC)[C@H](C)CN(C(=O)CN(C)C)[C@H](C)CO2	2.0
COc1cccc(S(=O)(=O)N2C[C@@H](O)COC[C@@H]3O[C@H](CC(=O)N4CCCCC4)CC[C@H]32)c1	0.6
COc1ccc(C#Cc2ccc3c(c2)[C@@H]2[C@@H](CCN2C(=O)c2ccccc2F)[C@@H](CO)N3)cc1	-3.3
COc1ccc(NC(=O)N2C[C@@H](O)COC[C@@H]3O[C@H](CC(=O)NCc4ccccc4OC)CC[C@H]32)cc1	7.5
CN1C[C@H]2[C@@H](c3ccccc31)[C@H](CO)N2S(=O)(=O)c1ccccc1	-12.2
Cc1cccc(S(=O)(=O)N2CCCCN3[C@H](CO)[C@@H](c4ccc(-c5cccnc5)cc4)[C@H]3C2)c1	-1.1
C[C@@H]1CN([C@H](C)CO)C(=O)c2cc(NC(=O)c3ccncc3)ccc2O[C@H]1CN(C)S(=O)(=O)c1cccs1	-7.1
CC(C)NC(=O)N(C)C[C@@H]1Oc2ccc(NS(=O)(=O)c3ccc(F)cc3)cc2CC(=O)N([C@H](C)CO)C[C@@H]1C	5.3
O=S(=O)(c1ccccc1)N1CC[C@@H]2[C@@H](CO)Nc3ccc(-c4ccccc4F)cc3[C@@H]21	-12.3
COc1ccccc1S(=O)(=O)N1CC[C@@H]2[C@H](CO)N(C)c3ccc(C#Cc4cccc(F)c4)cc3[C@@H]21	-4.2
C[C@H]1CN([C@@H](C)CO)C(=O)c2cc(NC(=O)c3ccncc3)ccc2O[C@H]1CN(C)C(=O)NC1CCCCC1	-11.5
CO[C@@H]1CN(C)C(=O)c2cc(NC(C)=O)ccc2OC[C@H](C)N(C(=O)c2ccccc2F)C[C@@H]1C	-4.2
CO[C@@H]1CN(C)C(=O)c2cc(NC(=O)c3cccc(F)c3)ccc2OC[C@H](C)NC[C@@H]1C	-2.0
Cc1noc(C)c1NC(=O)Nc1ccc2c(c1)CC(=O)N([C@@H](C)CO)C[C@H](C)[C@@H](CN(C)Cc1ccc(Cl)c(Cl)c1)O2	9.6
CNC(=O)C[C@H]1CC[C@@H]2[C@H](COC[C@H](O)CN2C(=O)Nc2ccc(Cl)c(Cl)c2)O1	32.6
C[C@@H]1CN([C@H](C)CO)C(=O)c2cccc(NC(=O)C3CCOCC3)c2O[C@H]1CN(C)Cc1ccc(Cl)c(Cl)c1	2.0
N#Cc1cccc(-c2ccc3c(c2)[C@H]2[C@H](CCN2Cc2cncnc2)[C@H](CO)N3)c1	-13.5
C[C@@H]1CN([C@@H](C)CO)C(=O)c2cc(NS(=O)(=O)c3ccc(F)cc3)ccc2O[C@@H]1CN(C)C	3.4
COc1ccccc1CNC(=O)C[C@@H]1CC[C@H]2[C@@H](COC[C@@H](O)CN2C(=O)Nc2ccc(C(F)(F)F)cc2)O1	12.1
CO[C@@H]1CN(C)C(=O)c2cc(NC(=O)Nc3ccc4c(c3)OCO4)ccc2OC[C@H](C)NC[C@H]1C	-4.9
CO[C@H]1CN(C)C(=O)c2ccc(NC(C)=O)cc2OC[C@H](C)N(C(=O)C2CCOCC2)C[C@H]1C	4.1
CNC(=O)C[C@@H]1CC[C@H]2[C@@H](COC[C@H](O)CN2S(=O)(=O)c2ccc(Oc3ccccc3)cc2)O1	15.5
CN1C(=O)c2cc(NC(=O)c3cccc(C(F)(F)F)c3)ccc2OC[C@H]2O[C@@H](CC(=O)NCCN3CCCC3)CC[C@H]21	2.9
COc1ccc(NC(=O)N(C)C[C@H]2Oc3ccc(NC(=O)Cn4cnnn4)cc3C(=O)N([C@H](C)CO)C[C@H]2C)cc1	-3.0
CN(C)C(=O)C[C@H]1C[C@H]2c3cc(NC(=O)Nc4ccc(C(F)(F)F)cc4)ccc3O[C@H]2[C@H](CO)O1	17.8
C[C@H](CO)N1C[C@H](C)[C@H](CN(C)C(=O)Nc2ccccc2)Oc2ncc(/C=C/c3ccccc3)cc2C1=O	1.9
O=C(Nc1ccccc1Cl)N1[C@H](CO)[C@H]2c3ccccc3NC[C@H]21	-3.8
CN1c2ccc(-c3cccc(F)c3)cc2[C@@H]2[C@@H](CCN2C(=O)Nc2ccccc2F)[C@@H]1CO	-2.3
C[C@H](CO)N1C[C@H](C)[C@H](CN(C)S(C)(=O)=O)Oc2ccc(NC(=O)NC3CCCCC3)cc2CC1=O	8.4
CCCNC(=O)N1[C@H](CNC(=O)c2ccc(F)cc2)[C@H](c2ccccc2)[C@@H]1CO	8.0
COCC(=O)Nc1ccc2c(c1)C(=O)N(C)C[C@@H](OC)[C@@H](C)CN(C(=O)c1cnccn1)[C@@H](C)CO2	32.3
CNC[C@H]1Oc2ccc(NC(=O)Nc3cccc4ccccc34)cc2C(=O)N([C@@H](C)CO)C[C@H]1C	9.4
COc1ccc(NC(=O)Nc2ccc3c(c2)C(=O)N([C@@H](C)CO)C[C@H](C)[C@@H](CN(C)C(=O)Nc2c(C)noc2C)O3)cc1	-3.4
CN1c2ccc(-c3ccc(F)cc3)cc2[C@@H]2[C@@H](CCN2C(=O)CC2CC2)[C@@H]1CO	-6.2
O=C(C[C@@H]1CC[C@H]2[C@@H](COC[C@@H](O)CN2C(=O)c2ccc(F)cc2)O1)N1CCOCC1	6.9
CN(C[C@H]1[C@@H](c2ccccc2)[C@H](CO)N1C(=O)C1CC1)C(=O)c1ccccn1	-7.4
C[C@@H]1CN([C@H](C)CO)C(=O)c2cccc(NC(=O)Nc3ccc4c(c3)OCO4)c2O[C@@H]1CN(C)Cc1ccc(Oc2ccccc2)cc1	30.2
C[C@@H]1CN([C@@H](C)CO)C(=O)c2c(c3ccccc3n2C)-c2ccccc2CO[C@@H]1CN(C)C(=O)Nc1ccccc1	10.6
CN1c2ccc(-c3ccccc3F)cc2[C@H]2[C@H](CCN2S(=O)(=O)c2ccc(F)cc2)[C@@H]1CO	-11.1
CO[C@H]1CN(C)C(=O)c2cc(NC(=O)C3CCCC3)ccc2OC[C@H](C)NC[C@H]1C	-3.7
C[C@H](CO)N1C[C@H](C)[C@@H](CN(C)C)Oc2ccc(NC(=O)Nc3ccc(F)cc3)cc2CC1=O	16.8
O=C(c1ccccc1)N1C[C@H]2[C@@H](c3ccccc31)[C@@H](CO)N2Cc1cocn1	-12.1
C[C@H]1CN([C@@H](C)CO)C(=O)Cc2cc(NS(=O)(=O)c3ccccc3)ccc2O[C@H]1CN(C)C(=O)Nc1ccc(F)cc1	3.2
COc1ccc(-c2ccc3c(c2)[C@H]2[C@H](CCN2C(=O)C2CCOCC2)[C@H](CO)N3C)cc1	19.2
O=C(c1cccc(F)c1)N1CCCCN2[C@H](CO)[C@H](c3ccc(/C=C/c4ccccc4)cc3)[C@@H]2C1	3.6
Cc1noc(C)c1NC(=O)N(C)C[C@@H]1Oc2ccc(NS(C)(=O)=O)cc2C(=O)N([C@H](C)CO)C[C@@H]1C	-15.9
CC(=O)NC[C@@H]1[C@@H](c2ccc(-c3cccnc3)cc2)[C@H](CO)N1C(=O)C1CC1	-8.5
Cc1noc(C)c1NC(=O)N(C)C[C@@H]1Oc2c(NC(=O)c3cnccn3)cccc2C(=O)N([C@H](C)CO)C[C@@H]1C	14.5
C[C@@H]1CN([C@@H](C)CO)C(=O)Cc2cc(NS(=O)(=O)c3ccccc3)ccc2O[C@@H]1CN(C)Cc1ccc(C(F)(F)F)cc1	-9.2
COc1ccc(NC(=O)N(C)C[C@@H]2Oc3c(NC(=O)Nc4cccc5ccccc45)cccc3C(=O)N([C@H](C)CO)C[C@H]2C)cc1	2.7
Cc1ccc(S(=O)(=O)N(C)C[C@@H]2Oc3ccc(NC(=O)Nc4ccc(F)cc4)cc3C(=O)N([C@H](C)CO)C[C@@H]2C)cc1	18.1
COc1ccccc1C#Cc1ccc2c(c1)[C@H]1[C@H](CCN1S(=O)(=O)c1ccccc1)[C@H](CO)N2	14.5

Other results.
compound	Yeast UUG start
CCNC(=O)C[C@H]1CC[C@@H]2[C@H](COC[C@H](O)CN2C(=O)Nc2ccc(Cl)c(Cl)c2)O1	1.6
COc1cccc(-c2ccc3c(c2)[C@H]2[C@H](CCN2S(=O)(=O)c2cn(C)cn2)[C@@H](CO)N3)c1	6.3
O=C(C[C@@H]1CC[C@@H]2[C@H](COC[C@H](O)CN2Cc2ccc(F)cc2)O1)N1CCc2ccccc2C1	10.2
CCCNC(=O)N1C[C@H](C)[C@H](OC)CN(C)C(=O)c2cc(NC(C)=O)ccc2OC[C@@H]1C	-7.8
Cn1cnc(S(=O)(=O)N2C[C@H](O)COC[C@@H]3O[C@H](CC(=O)NCc4ccc(F)cc4)CC[C@H]32)c1	-4.4
CCC(=O)N1C[C@@H]2[C@H](c3ccccc31)[C@H](CO)N2Cc1ccccc1OC	5.0
COc1ccc(CN(C)C[C@@H]2Oc3ccc(N(C)C)cc3CC(=O)N([C@H](C)CO)C[C@H]2C)cc1	-17.3
C[C@H]1CN([C@@H](C)CO)C(=O)c2cc(NC(=O)NC3CCCCC3)ccc2O[C@@H]1CN(C)S(=O)(=O)c1ccccc1	0.2
COc1cccc(S(=O)(=O)N2CCCCN3[C@H](C2)[C@@H](c2ccc(-c4cncnc4)cc2)[C@@H]3CO)c1	-5.5
CO[C@@H]1CN(C)C(=O)c2cc(NC(=O)Nc3cccc(F)c3)ccc2OC[C@@H](C)N(C(=O)Nc2cccc(F)c2)C[C@H]1C	4.1
CCCNC(=O)Nc1ccc2c(c1)C(=O)N(C)[C@@H]1CC[C@H](CC(=O)NCc3ccccc3)O[C@@H]1CO2	19.7
CO[C@@H]1CN(C)C(=O)c2ccc(NC(=O)c3ccc4c(c3)OCO4)cc2OC[C@H](C)NC[C@H]1C	-1.6
O=C(Cc1ccccc1)N1C[C@H]2[C@@H](c3ccccc31)[C@H](CO)N2C(=O)C1CCOCC1	9.4
C/C=C/c1ccc([C@H]2[C@@H](CO)N(C(=O)NC(C)C)[C@H]2CN(C)C(=O)CC)cc1	-4.1
COCC(=O)N1[C@@H]2CN(C(=O)NC(C)C)c3ccccc3[C@@H]2[C@@H]1CO	-1.6
CC(=O)N1[C@H](CN(C(=O)c2ccc(F)cc2)C(C)C)[C@@H](c2ccccc2)[C@@H]1CO	-2.0
O=C(c1cccc(F)c1)N1C[C@@H]2[C@H](c3ccccc31)[C@@H](CO)N2C(=O)Cc1ccccc1	32.9
Cc1noc(C)c1S(=O)(=O)Nc1cccc2c1O[C@@H](CN(C)C(=O)Nc1ccc3c(c1)OCO3)[C@@H](C)CN([C@@H](C)CO)C2=O	5.3
CN1c2ccc(Br)cc2[C@@H]2[C@@H](CCN2S(=O)(=O)c2ccccc2)[C@H]1CO	2.3
O=C(C1CCCC1)N1CCCCN2[C@H](CO)[C@H](c3ccc(C#CC4(O)CCCC4)cc3)[C@@H]2C1	14.0
CCCC(=O)Nc1ccc2c(c1)OC[C@@H](C)N(C(=O)c1ccccn1)C[C@H](C)[C@H](OC)CN(C)C2=O	-2.1
CCC(=O)N1[C@@H]2c3ccc(-c4ccccc4F)c(=O)n3C[C@H]1[C@H](CO)[C@H]2C(=O)NC1CCC1	-1.5
